TRPML1 ag: activates the human TRPML1 channel; Q9GZU1; TRPML1-expressing cells, Ca2+ dye fluorescence, FDSS; host cell line not named in the record; reference of the full effect not given here; activation, % (test concentration not listed); actives 0.12% (n = 410,000); in the data active = activation above about 50%; inconclusive = about 30% to 50%; inactive = below about 30%; also: 0% is about no effect; the text of the record puts the active cut at 80%
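TRPML1-DL cells, Tet-induced overnight (~16 h, 37 degrees C), loaded 45-90 min at room temperature with Ca8 no-wash calcium dye plus quencher. FDSS fluorescence: 10 s baseline, compound pin-transfer, 110 s agonist read, then EC80 54-4 (4uM final) and 110 s antagonist read.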
TRPML1 inh: inhibitors of human TRPML1 channel. Q9GZU1. TRPML1-inducible cells, Ca2+ dye fluorescence, FDSS; active compounds read low; inhibition of EC80 agonist-evoked calcium signal. activity change, negative = inhibition, % (test concentration not listed). actives 0.02% (n = 390,000); in the data active means activity change below about -50%; inconclusive means about -30% to -50%; inactive means above about -30%;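 also: stimulus is agonist 54-4 at its EC80 concentration; % is scaled to controls: 0 for no effect and ±100 for the full control effect; compound concentration not given in the record; the text of the record puts the active cut at -80%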
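Tet-induced TRPML1-DL cells loaded with Ca8 no-wash calcium dye were read kinetically on FDSS. Compound addition was followed by EC80 agonist 54-4 (4 uM final); inhibition was read over 110 s.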
Six1-Eya2 blk: blocks human Six1 binding to Eya2; AlphaScreen GST-Six1/His-Eya2 binding, biochemical; active compounds read low; control for the full effect not named in the record; activity change, % (no concentration beside the values); actives 0.56% (n = 360,000); in the data active = activity change below about -65%; inconclusive = about -30% to -65%; inactive = above about -30%; also: % is scaled to controls: 0 for no effect and ±100 for the full control effect
Target sequence (O00167 whole entry, looked up): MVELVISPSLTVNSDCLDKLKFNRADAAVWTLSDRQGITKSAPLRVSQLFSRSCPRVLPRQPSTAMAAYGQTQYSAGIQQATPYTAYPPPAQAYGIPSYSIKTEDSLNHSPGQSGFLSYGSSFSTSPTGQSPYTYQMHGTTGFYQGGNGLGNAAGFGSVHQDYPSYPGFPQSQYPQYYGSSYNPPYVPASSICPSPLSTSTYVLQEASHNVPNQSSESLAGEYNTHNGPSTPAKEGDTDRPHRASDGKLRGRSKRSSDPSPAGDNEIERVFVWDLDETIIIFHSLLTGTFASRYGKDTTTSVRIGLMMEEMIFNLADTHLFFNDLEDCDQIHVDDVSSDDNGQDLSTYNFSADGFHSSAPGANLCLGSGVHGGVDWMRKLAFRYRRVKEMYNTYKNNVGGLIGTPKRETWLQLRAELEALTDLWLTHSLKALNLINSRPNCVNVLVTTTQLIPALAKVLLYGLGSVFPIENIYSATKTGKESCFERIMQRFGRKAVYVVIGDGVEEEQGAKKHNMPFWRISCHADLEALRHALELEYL
Target sequence (Q15475 whole entry, looked up): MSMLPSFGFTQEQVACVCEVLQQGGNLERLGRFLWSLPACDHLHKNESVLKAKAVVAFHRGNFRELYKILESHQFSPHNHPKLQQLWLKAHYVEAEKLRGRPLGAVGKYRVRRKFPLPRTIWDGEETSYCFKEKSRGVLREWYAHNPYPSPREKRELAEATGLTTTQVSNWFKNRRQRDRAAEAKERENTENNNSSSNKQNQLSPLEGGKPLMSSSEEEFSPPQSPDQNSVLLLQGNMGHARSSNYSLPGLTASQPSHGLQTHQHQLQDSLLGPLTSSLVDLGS
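AlphaScreen luminescence read after one hour at 37 °C in darkness. Pin-transferred compounds met GST-Six1 and His-Eya2 protein (5X stock 250 nM/500 nM) plus glutathione donor and Ni-chelate acceptor beads (5X, 50 ug/mL).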
CtBP-E1A blk: CtBP/E1A binding inhibition; actives 0.49% (n = 340,000); AlphaScreen GST-E1A/His-CtBP binding, 1536-well; active compounds read low; control for the full effect not named in the record; activity change, % (no concentration beside the values); in the data active means activity change below about -65%; inconclusive means about -30% to -65%; inactive means above about -30%; also: % is scaled to controls: 0 for no effect and ±100 for the full control effect
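Steps: dispense buffer (Tris pH 8.0, NaCl 300 mM, TCEP 1 mM, BSA, Tween 20); add 5X protein mix (GST-E1A, His-CtBP, 125 nM each); pin 23 nL compound; 2 h at 37 °C, dark; add 5X beads (50 ug/mL); 1 h; read.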
D2 ag: agonists of human D2 dopamine receptor (beta-arrestin); P14416; DiscoveRx PathHunter D2 beta-arrestin, luminescence, 90 min; 100% = 57 uM dopamine signal; activation, % (no concentration beside the values); actives 0.084% (n = 360,000); AID 624465; in the data active = activation above about 40%; inconclusive = about 15% to 40%; inactive = below about 15%; also: compound concentration not given in the record; the text of the record calls up to 30% inactive
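Agonist mode: compounds alone added to overnight-plated D2 PathHunter cells for 90 min at 37 C, with 57 uM final dopamine (EC100) defining full response. Beta-arrestin recruitment detected by chemiluminescent reagent, read after 1 h at ambient temperature.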
PINK1 modulator: modulators of PINK1 expression; PINK1 immunofluorescence, high-content cytometry, 24 h; Potency, µM (top dose mostly 76.6 µM), for the others: at the top dose activation (PINK1 increase), actives largely listed as activators; actives 0.2% (n = 410,000); AID 624263; active = well fitted activation curve with a large enough effect; inconclusive = small, poorly fitted or top-dose-only effect; inactive = flat fitted curve, though single readings scatter; cell line not stated here;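 also: potency is read from the fitted curve at half-maximal effect; % of control where 0% means no effect; nearly all actives have a fitted effect of over 65% in size; a mitochondrial uncoupler was the plate control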
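Compound titrations (5 concentrations, 24 h) on a stable cell line; DMSO and CCCP controls. Endpoint: fixed-cell PINK1 immunofluorescence with mitochondrial, cell and nuclear markers, scanned by microplate cytometer.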
The depositor's hits bear a star; ? = inconclusive; / = not tested or not shown; [ ] = dose if it differs, or a comment.

SMILES	TRPML1 ag	TRPML1 inh	Six1-Eya2 blk	CtBP-E1A blk	D2 ag	PINK1 modulator
N#Cc1ccc(/C=N/NC(=O)CCc2ccc(S(=O)(=O)N3CCOCC3)cc2)cc1	1.5	-3	0	-3	0.1	-1.7%
COc1ccc2[nH]c(C(=O)O)c(NS(=O)(=O)c3ccc(Cl)s3)c2c1	-0.1	4	-9	-9	-4.1	0.7%
CCC[C@@H](CN1CCC[C@H]1CN1C(N)=NC[C@H]1CC(C)C)N1C[C@@H]([C@H](C)CC)N(CCCC2CCCC2)C1=N	-0.1	-5	6	-8	-3.8	2.0%
COc1ccc(NS(=O)(=O)c2ccc3[nH]c4c(c3c2)CCCC4)cc1OC	3.4	19	/	/	/	3.0%
COc1cc(N)n(S(=O)(=O)c2ccc(C)cc2)n1	-0.1	1	7	6	-2.6	0.9%
Cc1ccc(-n2nc(C(=O)N(C)c3ccccc3Cl)c3c4ccccc4n(C)c3c2=O)cc1	1.3	-25	/	/	/	0.1%
O=c1cc(CSc2nnc(Nc3ccccc3F)s2)nc2sccn12	0.3	19	-1	2	-2.4	-1.1%
COc1ccc(-c2ccc(C(=O)NCC(C)C)c3occc23)c(C)c1	1.7	37	2	1	12	8.8%
CC(c1cccs1)N(Cc1ccco1)C(=O)Nc1ccc(Cl)c(Cl)c1 (centres undefined)	2.3	49	4	4	0.0	5.3%[38.3 µM]
CCN(CC)c1ccc(NC(=O)CN2C(=O)CC(C)(C)S(=O)(=O)c3ccccc32)c(C)c1	0.1	19	2	-2	-1.1	-0.5%
Cn1cccc1Cc1nnc(SCC(=O)NC2CCCCC2)n1-c1ccc(F)cc1	0.6	25	-3	-2	-2.4	1.7%
COc1ccc(OC)c(-n2c(=S)[nH]c3cc(C(=O)N(C)Cc4ccccc4)ccc3c2=O)c1	-0.2	11	-7	-7	-6.1	3.7%
COc1ccc(N(C)C(=O)c2ccc3snnc3c2)cc1	-0.5	1	2	7	0.2	-0.4%
Cc1ccc(S(=O)(=O)N2CCC(C(=O)OC3CCOC3=O)CC2)cc1C (centres undefined)	0.1	31	3	6	-1.0	22%
CCOC(=O)c1c(N)sc(C(O)(C(F)(F)F)C(F)(F)F)c1-c1ccc(F)cc1	4.8	-11	16	16	2.9	10%
COc1ccc(CNC(=O)COC(=O)C2=Cc3ccccc3OC2)cc1	0.5	6	-13	-4	-4.4	1.0%
Cc1oc2ccc(OCc3ccc(F)cc3Cl)cc2c1C(=O)O	-0.3	-11	1	-3	-0.6	1.0%
CC(Oc1ccccc1)c1nnc(N)s1 (centres undefined)	0.0	-3	5	5	0.2	0.1%
O=C(CN1CCCCC1)Nc1cccc(Cl)c1	0.3	-7	1	4	-4.8	1.5%
CCCC1CCc2c(sc(NC(=O)OCC)c2C#N)C1 (centres undefined)	-0.1	2	1	6	-1.5	15%
Cc1ccc(Cn2c(=O)n(C)c(=O)c3sccc32)cc1	1.3	6	6	9	8.7	4.8%
O=C1CCCN1CCCNS(=O)(=O)c1cccc(F)c1	0.1	9	2	13	-1.9	1.2%
Cn1c(=O)nc2n(-c3ccc(Cl)c(Cl)c3)c3cc(Cl)ccc3cc-2c1=O	0.2	-3	/	/	/	2.6%
Cc1cc(C)n(-c2ccc(NC(=O)C3CCCCN3C(=O)c3ccoc3C)cc2)n1 (centres undefined)	5.3	18	6	/	0.8	1.5%
O=C1CC2(CCN(C(=O)C3CC(=O)N(c4ccccc4)C3)CC2)Oc2ccccc21 (centres undefined)	0.0	2	0	-27	-5.0	2.6%
CC(C)CNC(=O)CCc1c[nH]c2ccccc12	-0.3	-3	3	0	2.8	-0.3%
COC(=O)c1ccccc1NC(=O)Cn1cc(S(=O)(=O)Cc2ccccc2F)c2ccccc21	-0.2	-24	/	/	/	-2.1%
Clc1cccc(CSc2nc3ccncc3[nH]2)c1	0.3	21	5	-1	1.4	-0.1%
COC(=O)CCC(=O)Nc1ccc(Cl)c(Cl)c1	0.6	-13	0	-3	-0.5	-0.8%[38.3 µM]
Cc1cc(C(=O)Nc2cccc(C(=O)O)c2)oc1C	-0.4	-17	3	-7	-1.1	0.2%
CC(C)n1c(SCC(N)=O)nc2c1c(=O)n(C)c(=O)n2C	-0.5	1	-2	2	0.2	4.8%[38.3 µM]
O=C(N/N=C/c1cccc(O)c1)c1cc(C2CC2)nc2ccccc12	1.5	2	-11	-5	-1.1	7.6%
Cc1c(C(=O)NNC(=O)c2cccnc2)cccc1[N+](=O)[O-]	0.4	-9	3	/	0.4	0.8%
CCOC(=O)Cn1nnnc1C(CC)N(Cc1ccccc1)Cc1cc2cc(C)ccc2[nH]c1=O (centres undefined)	2.5	3	-1	7	-1.9	0.6%[38.3 µM]
CCOc1ccc(N(CC(=O)NCc2ccc(OC)cc2)C(=O)CCC(=O)Nc2nccs2)cc1	-0.3	0	3	-9	-7.1	14%
C=C(C)CC(NCc1ccco1)c1ccc(OC)cc1 (centres undefined)	-0.3	20	-5	-1	-4.4	3.0%
CC(=O)CSc1nnc(-c2ccc(S(=O)(=O)N3CCC(C)CC3)cc2)o1	0.1	0	2	2	0.2	14%[38.3 µM]
O=[N+]([O-])c1ccc(F)cc1Oc1nc(-c2cccnc2)nc2ccccc12	3.2	59	-24	-13	-1.5	3.3%
CCc1ccc(CNCCNC(=O)c2ccco2)cc1	1.6	-14	-9	-5	-1.1	0.4%
CCOC(=O)CNC(=O)CSc1nnc(-c2ccco2)n1N	-0.2	-13	2	3	-1.5	0.0%
COCc1cccc(-c2csc(C(C)(NC(C)=O)c3ccc(OC)cc3)n2)c1 (centres undefined)	-0.8	/	-1	4	-3.9	4.4%
Cc1cc(NC(=O)CN2C(=O)NC3(CCC(C)CC3)C2=O)no1 (centres undefined)	-0.4	-10	9	8	-2.1	-0.2%
O=C(Nc1cccc(Cl)c1)Nc1cccc(Cl)c1	1.8	16	14	6	8.6	2.6%
COc1cc(NC(=O)c2cc3c(=O)n(Cc4cccs4)ccc3nc2C)cc(OC)c1OC	0.7	-7	/	/	/	-0.9%
O=C(CN1C(=O)c2ccccc2C1=O)Nc1ccc(Cl)cn1	0.8	7	-9	/	-0.7	1.2%
COc1ccc(Cc2nnc(SCC(=O)c3c(N)n(C4CC4)c(=O)[nH]c3=O)o2)cc1	0.6	3	-1	6	7.3	12%
O=C1CCCCN1CC(=O)N1CCCC(N2CCN(c3ccccc3F)CC2)C1 (centres undefined)	0.5	-10	0	9	-0.3	-0.5%
O=C(NCc1cccnc1)c1cc(Sc2ccccc2Cl)nc2ccccc12	3.6	-1	-27	-4	4.1	-1.5%
O=C(Nc1ccccc1F)c1ccc(S(=O)(=O)N2CCCCCC2)cc1	1.1	19	10	-1	-2.3	0.3%
O=C(NCc1ccccn1)c1cc2cc(Br)ccc2oc1=O	0.1	11	0	7	-0.7	20%[38.3 µM]
Cc1ccc2c(c1)N(C(=O)CCC(=O)NCc1cccc(Cl)c1)CC(C)O2 (centres undefined)	1.0	-13	3	1	-6.7	0.6%
Cc1ccccc1C(=O)N1CCC(C(=O)NC2CCCC2)CC1	-0.4	18	-7	7	-1.7	0.5%
Cn1cc(CN2CCC(n3nccc3NC(=O)CCOc3ccccc3)CC2)cn1	0.9	-8	3	-4	2.0	3.1%
Cc1ccc2nc(NC(=O)c3ccc4c(c3)OCO4)sc2c1	-0.2	6	-1	11	-2.3	/
COc1ccc(NC(=O)CN(C)C(=O)c2cc3c(cc2Cl)N2CCCCCC2=NS3(=O)=O)cc1	2.0	-2	-4	-16	-2.0	-1.1%
CCN(Cc1ccccc1)C(=O)CCc1c(C)nc2c(c(C)nn2-c2ccc(C)c(C)c2)c1C	-0.9	-20	/	/	/	-0.8%
O=C(OCc1cn([C@H]2C[C@H](c3ccccc3)N(C(=O)c3cccs3)C[C@@H]2O)nn1)c1ccccc1	0.4	-1	-10	5	-1.1	-0.3%
Cc1ccc(NC(=O)CSCC(=O)NCCc2ccccc2)c(C)c1	-0.8	8	-4	/	-2.2	1.9%
Cc1nc2ccc(-n3ccc(=O)cc3)cc2s1	0.6	-2	1	3	1.0	1.7%[38.3 µM]
Cc1ccccc1CN(C)C(C)C(=O)Nc1ccccc1F (centres undefined)	1.9	-12	16	23	-4.4	?

Part of the list above in order of SMILES length, lowest first.
SMILES	TRPML1 ag	TRPML1 inh	Six1-Eya2 blk	CtBP-E1A blk	D2 ag	PINK1 modulator
C=C(C)CC(NCc1ccco1)c1ccc(OC)cc1 (centres undefined)	-0.3	20	-5	-1	-4.4	3.0%
COc1cc(N)n(S(=O)(=O)c2ccc(C)cc2)n1	-0.1	1	7	6	-2.6	0.9%
CCOC(=O)CNC(=O)CSc1nnc(-c2ccco2)n1N	-0.2	-13	2	3	-1.5	0.0%
COc1ccc2[nH]c(C(=O)O)c(NS(=O)(=O)c3ccc(Cl)s3)c2c1	-0.1	4	-9	-9	-4.1	0.7%
Cc1cc(C)n(-c2ccc(NC(=O)C3CCCCN3C(=O)c3ccoc3C)cc2)n1 (centres undefined)	5.3	18	6	/	0.8	1.5%
COC(=O)c1ccccc1NC(=O)Cn1cc(S(=O)(=O)Cc2ccccc2F)c2ccccc21	-0.2	-24	/	/	/	-2.1%

Other records follow:
SMILES	TRPML1 ag	TRPML1 inh	Six1-Eya2 blk	CtBP-E1A blk	D2 ag	PINK1 modulator
NS(=O)(=O)c1ccc(CCNC(=O)COC(=O)/C=C/c2ccccc2Cl)cc1	3.0	3	0	-7	-2.1	0.0%
CN(C)C(CNC(=O)c1ccc2nccnc2c1)c1ccco1 (centres undefined)	-0.3	12	2	1	-2.5	-1.4%
O=C(N/N=C/c1ccccc1F)c1csc2c1CCCC2	0.7	-8	15	35	-3.2	-1.2%
COc1cc(CCNC2=CC(=O)c3ncccc3C2=O)ccc1O	-0.1	-7	?	?	?	-4.3%
COc1ccc(OC)c(C(=O)CC2(O)C(=O)N(Cc3ccccc3C)c3ccccc32)c1 (centres undefined)	2.3	-11	/	/	/	3.6%
O=C(CC(SCCO)c1ccc2c(c1)OCO2)c1ccco1 (centres undefined)	-0.7	-7	2	-1	-4.9	0.5%
COC(=O)c1c(-c2cccs2)csc1NC(=O)c1cc(OC)cc(OC)c1	0.1	13	/	/	/	14%
COc1ccc(-n2cnc3cc(C(=O)NCCC4=CCCCC4)ccc32)cc1	2.8	-16	/	/	/	0.2%
C[C@@H](C(=O)Nc1ccc2ccccc2c1)[C@H]1C[C@]1(C)[C@H](NC(=O)c1cccnc1)c1ccccc1	-0.6	1	-4	6	2.7	5.0%
CC(C)OC(=O)Nc1ccc(Oc2c(F)c(F)c(F)c(F)c2F)cc1	2.9	-12	10	1	3.6	-0.3%
COc1cc(Br)c(CCNC(=O)Cc2ccccc2)cc1OC	0.7	0	-2	2	-1.7	0.8%
CC(=O)COc1c(-c2ccco2)oc2ccccc2c1=O	0.3	20	-2	-3	-2.5	-0.2%
